# VDR inhibitor: blocks the human vitamin D receptor; Potency, µM, without a hit: max response, negative = inhibition, hits mostly inhibitors; P11473; 400,000 tested, 0.93% active; VDR-SRC2-3 peptide fluorescence polarization, 2 h; active = well fitted inhibition curve with a large enough effect; inconclusive = small, poorly fitted or top-dose-only effect, or another doubt; inactive = no such curve, though single readings can be large or run the other way; also: series mostly up to about 120 µM
# Target sequence (P11473 whole entry, looked up): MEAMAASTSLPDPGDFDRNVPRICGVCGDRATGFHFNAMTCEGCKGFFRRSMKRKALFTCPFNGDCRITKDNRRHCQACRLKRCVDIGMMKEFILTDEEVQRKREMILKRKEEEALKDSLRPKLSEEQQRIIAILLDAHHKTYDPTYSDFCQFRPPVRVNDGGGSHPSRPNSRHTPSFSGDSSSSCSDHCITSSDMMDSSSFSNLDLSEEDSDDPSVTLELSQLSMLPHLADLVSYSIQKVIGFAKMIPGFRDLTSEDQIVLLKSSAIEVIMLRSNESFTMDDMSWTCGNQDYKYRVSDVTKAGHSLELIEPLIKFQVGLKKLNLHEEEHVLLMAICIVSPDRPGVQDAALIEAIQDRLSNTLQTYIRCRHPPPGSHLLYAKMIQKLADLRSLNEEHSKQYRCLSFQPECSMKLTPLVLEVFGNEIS
#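 Fluorescence polarization assay of small-molecule disruption of VDR binding to coregulator peptide SRC2-3. Compounds and controls pin-transferred, then read after 2 h incubation at ambient room temperature.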
# * = called active by the depositor; ? = inconclusive; & = joins results of further samples. % is scaled to controls: 0 for no effect and ±100 for the full control effect; potency is read from the fitted curve at half-maximal effect. Only part of the results is shown; the hit share may differ from the screen's.
SMILES,VDR inhibitor
COc1ccc(S(=O)(=O)N2CCN(CC(=O)Nc3ccc(C)c(F)c3)CC2)cc1,-12%
O=C(Nc1ccccc1)c1ccc(Br)c(S(=O)(=O)N2CCCCC2)c1,16%
O=C(COC(=O)c1ccc(S(=O)(=O)N2CCOCC2)cc1)NC1CCCCCCC1,-7%
COc1ccc(OCCNC(=O)CCCO)cc1,0%
Cc1nc2sccn2c1P(c1c(C)nc2sccn12)c1c(C)nc2sccn12,1%
CC(=O)Nc1sc2c(c1C(c1ccc(F)cc1)N1CCOCC1)CCCC2 (stereo not drawn),16%
Cc1ccc2c(c1)nnn2C1CCN(S(=O)(=O)c2ccc(C(=O)N3C(C)CCCC3C)cc2)CC1 (stereo not drawn),-2%
CC(=O)NC(=O)c1nnn(Cc2ccccc2)c1NC(C)=O,-5%
CCCCN(CCCC)S(=O)(=O)c1ccc(NC(=O)c2c(-c3ccccc3)noc2C)cc1,-15%
CCCCn1c(=O)c(CCC(=O)O)nc2ccccc21,-6%
C[C@@H]1CC[C@]2(C(=O)O)CC[C@]3(C)C(=CCC4[C@@]5(C)CC[C@H](O)[C@@](C)(C(=O)O)C5CC[C@]43C)C2[C@]1(C)O (stereo partly drawn),-8%
Nc1c(Cl)ncnc1N/N=C/c1ccc2ccccc2n1,-6%
Cc1ccc(N=CC2=C(O)CC(c3ccco3)CC2=O)cc1 (stereo not drawn),-11%
O=C(CCNS(=O)(=O)c1ccc(Cl)cc1)N1CCC2(O)CCCCC2C1 (stereo not drawn),6%
CCOC(=O)c1cnc(SCC#N)nc1N,7%
CCOc1ccc(NC(=O)c2nnn(-c3ccc(F)c(Cl)c3)c2C)cc1,7%
CCOc1cc(CNc2ccc(O)cc2)cc(Br)c1OCc1ccccc1F,79µM*
COc1ccc(CN(C(=O)c2ccc(-c3ccccc3)[nH]2)C(C(=O)NC(C)(C)C)c2ccncc2)cc1 (stereo not drawn),-9%
COc1ccc(/C=C2\SC(=S)N(CCC(=O)N(CCO)c3ccccc3)C2=O)cc1OC,3%
COc1ccc(C(=O)Nc2ccc3nc4c(c(Nc5ccccc5OC)c3c2)CCCC4)c(OC)c1,-8%
O=C(CCCn1c(=S)[nH]c2ccccc2c1=O)NCc1ccco1,-9%
C/C(=N\Nc1ccccn1)c1ccc(C(C)C)cc1,4%
N#C/C(=C\c1ccc([N+](=O)[O-])o1)c1nc2ccccc2[nH]1,-13%
CCCC(C)NC(=O)Cc1ccccc1[N+](=O)[O-] (stereo not drawn),-7%
COC(=O)c1cccnc1-n1c(=O)c2cccnc2n(CC(=O)Nc2cccc(C(F)(F)F)c2)c1=O,8%
CCOCCOC(=O)c1ccc(-n2cncn2)nc1,16%
CCN(CC(=O)NCCCn1ccnc1)S(=O)(=O)c1ccc(C)cc1,-10%
CC(C)NC(=O)c1ccccc1NC(=O)C1CC(=O)N(C(C)C)C1 (stereo not drawn),-9%
COc1ccc(OC)c(NC(=O)C2CCCN(S(=O)(=O)c3c(C)nn(C)c3C)C2)c1 (stereo not drawn),-13%&-8%
O=C(Nc1cc(S(=O)(=O)N2CCOCC2)ccc1Cl)c1cc(=O)c2ccccc2o1,-10%
COc1ccc(NC2=NC(=S)N(c3cccc(C)c3)C23CCCCC3)cc1,-26%
CC(C)C(=O)Nc1nnc(NC(=S)Nc2ccccc2)s1,-6%
O=C(Cn1ncc2c3ccccc3n(Cc3ccc(Cl)cc3)c2c1=O)NCCCN1CCCC1=O,2%
O=C(/C=C/c1ccccc1)OCN1C(=O)c2ccccc2C1=O,?
O=C(NCc1ccco1)C(=O)NCC1OCCN1S(=O)(=O)c1ccc(F)cc1 (stereo not drawn),-10%
COc1cc2c(cc1OC)CN(C(=O)c1cc(S(=O)(=O)N3CCOCC3)ccc1C)CC2,6%
Cc1ccc(S(=O)(=O)N2CN(CC3CCCO3)c3nc4ccccc4nc32)cc1 (stereo not drawn),12%
Nn1c(COc2ccc(Cl)cc2)nc2ccccc2c1=O,5%
CCCN(CCC)CCCNC(=O)CC(C(=O)N1CCc2ccccc21)n1ccnc1 (stereo not drawn),3%
COc1ccc(NC(=S)N2CCC(NC(=O)c3cccc(F)c3)CC2)cc1,-9%
O=C(NCc1ccccn1)c1cccc(NS(=O)(=O)c2ccc(Br)cc2)c1,7%
CCOC(=O)c1c(S(=O)(=O)N2CCCC(C(=O)N3CCN(c4cc(C)ccc4C)CC3)C2)c(C)n(C)c1C (stereo not drawn),-6%
O=C(NC1CC2CCCC(C1)N2C(=O)Nc1ccccc1)C1CC1 (stereo not drawn),3%
Cc1cc(C)n2nc(C(=O)OCC(=O)c3cc(C)n(C)c3C)nc2n1,4%
C=C(C)CN1C(=O)C2(OCCO2)c2cc(Br)ccc21,11%
COCCOC(=O)C1=C(C)N=C2SCCC(=O)N2C1c1ccc(OC(=O)c2ccco2)cc1 (stereo not drawn),4%
COC(=O)C1=C(C)NC(C)=C(C(=O)OC)C1C(=O)OCc1nc2cc(C(=O)OC)ccc2c(=O)[nH]1,-8%
c1ccc2c(Nc3ccncc3)nc(-c3ccoc3)nc2c1,?
Cc1cccc(N2CCN(C(=O)c3cccn4c(=O)c5cc(Cl)ccc5nc34)CC2C)c1 (stereo not drawn),8%
CC(=O)N1CCC2(CC1)CCN(c1cccc(-c3ccccc3)c1)CC2,?
# (listing goes on)
SMILES,VDR inhibitor
CCCCCCCC/C=C\C/C=C\C=C\C(O)CCCC(=O)O (stereo not drawn),2%
COc1cc(NC(=O)Nc2cccc(Cl)c2)c(OC)cc1NC(=O)CN1CCCCC1,6%
N#Cc1ccc(OC(=O)Cc2ccsc2)cc1,9%
COC(=O)c1sccc1NC(=S)N1CCCC(C)C1 (stereo not drawn),10%
CCOc1ccc(C2c3[nH]c4ccccc4c3CCN2C(=O)Cn2cncn2)cc1 (stereo not drawn),8%
Cc1nc(Cl)cc(CS(=O)(=O)c2ccc(Cl)cc2)n1,-5%
Cc1cnc(CNc2ncncc2-c2ccccc2C)cn1,-24%
CCc1nc(SCC(=O)NC2CC2)c2c(C)c(C)sc2n1,2%
COc1cc(OC)cc(C(=O)NC(C(=O)NNC(=O)c2ccc(C)cc2)C(C)C)c1 (stereo not drawn),18%
O=C(c1cccc(F)c1)N1CCN(Cc2ccco2)CC1,-1%

# Structural class: those above with bromine.
SMILES,VDR inhibitor
O=C(Nc1ccccc1)c1ccc(Br)c(S(=O)(=O)N2CCCCC2)c1,16%
CCOc1cc(CNc2ccc(O)cc2)cc(Br)c1OCc1ccccc1F,79µM*
O=C(NCc1ccccn1)c1cccc(NS(=O)(=O)c2ccc(Br)cc2)c1,7%
C=C(C)CN1C(=O)C2(OCCO2)c2cc(Br)ccc21,11%

# The listing picks up, repeating the 3 entries before the break.
SMILES,VDR inhibitor
CCc1nc(SCC(=O)NC2CC2)c2c(C)c(C)sc2n1,2%
COc1cc(OC)cc(C(=O)NC(C(=O)NNC(=O)c2ccc(C)cc2)C(C)C)c1 (stereo not drawn),18%
O=C(c1cccc(F)c1)N1CCN(Cc2ccco2)CC1,-1%
O=c1cc(CNC2CCCCC2)c2ccccc2[nH]1,1%
CCOC(=O)Cc1csc(NC(=O)C(C)(C)CC)n1,6%
NOCc1ccccc1,2%
Cc1cc(NC(=O)CSCCc2ccncc2)no1,-1%
O=C(CS(=O)(=O)c1ccccc1)Nc1nccs1,0%
CCC(=O)N(CC(=O)Nc1sc(C)c(C)c1C(N)=O)Cc1ccc(F)cc1,-7%
CCOc1ccc(Br)cc1S(=O)(=O)Nc1ccc(C(=O)OC(C)C(=O)N(C)c2ccccc2)cc1 (stereo not drawn),7%
CCCCN(C(=O)Cc1ccc(S(=O)(=O)N2CCOCC2)s1)c1c(N)n(CC(C)C)c(=O)[nH]c1=O,-3%
CN(Cc1ccc(Cl)c(Cl)c1)C(=O)CN1C(=O)NC2(CCCC2)C1=O,-5%
CC1CCc2c(sc(NC(=O)c3ccc(Cn4cc(Br)cn4)o3)c2C(N)=O)C1 (stereo not drawn),-13%
CC(=O)Nc1ccc(NC(=O)c2ccc(C3SCC(=O)N3CCc3ccccc3)cc2)cc1 (stereo not drawn),-10%
CCCCC(=O)NC(c1ccc(Cl)cc1Cl)c1ccc2cccnc2c1O (stereo not drawn),?
CCOc1ccccc1C(c1c(O)nc(SC)[nH]c1=O)c1c(O)nc(SC)[nH]c1=O,-8%
COc1cccc(CNC(=O)c2ccc(OCC(=O)N3CCOCC3)c(OC)c2)c1,6%
COc1ccccc1CNC(=O)Cn1cc2c(n1)CCCC2,-9%
COc1ccc(-c2onc(C)c2C)cc1S(=O)(=O)N1CCN(c2cc(C)ccc2C)CC1,1%
COC(=O)CC1C(=O)NCCN1Cc1cn(-c2ccc(C)cc2)nc1-c1cccc(C)c1 (stereo not drawn),0%
Cc1c(C)c(C)c(S(=O)(=O)N2CCNCC2)c(C)c1C,-4%
OC(Cn1nnc2ccccc21)Cn1c(C(F)(F)F)nc2ccccc21 (stereo not drawn),-1%
COC(=O)Cc1ccc(NC(=S)N2CCC(Cc3ccccc3)CC2)cc1,4%
COc1cccc(COC(=O)C2CC(=O)N(Cc3ccc(C)cc3)C2)c1OC (stereo not drawn),9%
COc1cc(/C=C2/C(=N)N3C=CSC3=NC2=O)ccc1OCCCOc1ccccc1C,12%
COc1cc(C(=O)NNC(=S)NC(=O)/C=C/c2ccccc2)cc(OC)c1OC,-8%
COc1cccc(C(=O)Nc2cc3c(cc2Cl)OCCCO3)c1,-13%
Cc1ccc(-c2ccc(/C=N/NC(N)=S)o2)cc1,89µM*
CN(C(=O)C(=O)Nc1ccc2nc3n(c(=O)c2c1)CCCCC3)c1cccc(C(F)(F)F)c1,-4%
CCCC(=O)Nc1ccccc1NC(=O)c1ccc(OC(C)=O)cc1,16%
O=C(NCCCN1CCOCC1)c1ccco1,-2%
COc1cc(-c2n[nH]c(=S)n2-c2ccccc2C(F)(F)F)cc(OC)c1OC,-25%
Cc1ccc(-c2nc(CS(=O)(=O)CC(=O)NCCc3ccccc3)c(C)o2)cc1,-13%
CCC(C)c1ccccc1N1CC(C(=O)Nc2ccc(N3CCOCC3)cc2)CC1=O (stereo not drawn),-7%
N#Cc1ccccc1NC(=O)COC(=O)/C=C/c1cn(-c2ccccc2)nc1-c1ccc(Cl)cc1,-4%
Cc1ccc(N(C)C(=O)CCS(=O)(=O)c2cc3c(cc2Cl)NC(=O)CO3)cc1,-18%&10%
Cc1cccc(N2CCN(C(=O)CCCn3c(=O)[nH]c4ccsc4c3=O)CC2)c1C,?
O=C(COc1ccccc1)NNC(=O)c1cc2ccccc2oc1=O,2%
Cc1cccc(NC(=O)COC(=O)c2ccc(C)c(S(=O)(=O)N3CCCCC3)c2)c1,-5%
NC(=O)C1CCCN(Cc2ccc3ccccc3c2)C1 (stereo not drawn),-6%
CCN(CC)CCCNC1=C(Cl)C(=O)c2ccccc2C1=O,10%
Cc1cccc(C(=O)N[C@H](C(=O)Nc2ncc(C)s2)C(C)C)c1,1%
CCOC(=O)C1(Cc2cccc(F)c2)CCN(Cc2cnn(CC)c2)CC1,17%

# Molecules listed so far that have two or more sulfur atoms:
SMILES,VDR inhibitor
Cc1nc2sccn2c1P(c1c(C)nc2sccn12)c1c(C)nc2sccn12,1%
COc1ccc(/C=C2\SC(=S)N(CCC(=O)N(CCO)c3ccccc3)C2=O)cc1OC,3%
CC(C)C(=O)Nc1nnc(NC(=S)Nc2ccccc2)s1,-6%
COC(=O)c1sccc1NC(=S)N1CCCC(C)C1 (stereo not drawn),10%
CCc1nc(SCC(=O)NC2CC2)c2c(C)c(C)sc2n1,2%
O=C(CS(=O)(=O)c1ccccc1)Nc1nccs1,0%
CCCCN(C(=O)Cc1ccc(S(=O)(=O)N2CCOCC2)s1)c1c(N)n(CC(C)C)c(=O)[nH]c1=O,-3%
CCOc1ccccc1C(c1c(O)nc(SC)[nH]c1=O)c1c(O)nc(SC)[nH]c1=O,-8%

# Three entries from above, bar-delimited.
molecule | VDR inhibitor
Cc1ccc(N(C)C(=O)CCS(=O)(=O)c2cc3c(cc2Cl)NC(=O)CO3)cc1 | -18%&10%
N#Cc1ccccc1NC(=O)COC(=O)/C=C/c1cn(-c2ccccc2)nc1-c1ccc(Cl)cc1 | -4%
O=C(COc1ccccc1)NNC(=O)c1cc2ccccc2oc1=O | 2%

# Later entries:
SMILES,VDR inhibitor
Cc1cccc(OCCCn2ccnc2)c1,11%
Cc1c(C(=O)N(C)c2ccccc2)oc2c1C(O)CC(C)(C)C2 (stereo not drawn),17%
CCOc1ccc(C(OC(=O)c2ccco2)C(=O)NCc2ccc(C)cc2)cc1 (stereo not drawn),22%
O=C(Nn1c(O)c(C=C2N=c3ccccc3=N2)sc1=S)c1ccc(Cl)cc1,3%
CCOc1cc(/C=C2\N=C(C)OC2=O)cc(Br)c1OCCc1ccccc1,?
Nc1ncnc2nc(SCCN3CCCCC3)[nH]c12,2%
COc1ccc(C2=C(N3CCN(c4cc(Cl)ccc4C)CC3)c3ccccc3C2=O)cc1,17%
CCc1ccccc1N1CCN(S(=O)(=O)c2cc(OC)ccc2OC)CC1,-6%
O=c1nccc(N/N=C/c2ccccc2O)[nH]1,-18%
C=CCOc1ccc(C2C(C(=O)c3ccco3)=C(O)C(=O)N2CCCN(CC)CC)cc1 (stereo not drawn),-9%
O=C(NN=Cc1ccccc1C(=O)O)c1cccc(S(=O)(=O)Nc2cccc(C(F)(F)F)c2)c1,-1%
OCCCn1c(-c2ccc(F)cc2)csc1=Nc1ccc(F)cc1,-7%
COc1cccc(NC(=O)c2ccc3c(c2)N(C)CCS3)c1,-18%
COc1ccccc1N1C(=O)[C@@H]2C(C(=O)CN3C(=O)c4ccccc4C3=O)=NN[C@@H]2C1=O,-6%
CCCCn1c(SCC(=O)NC2CCCC2)nnc1-c1ccco1,-14%
Cc1cccc(NC(=O)c2ccc3nc(CCc4ccccc4)oc3c2)c1C,-4%
O=C(CC1C(=O)NCCN1C(=O)Nc1ccc(Cl)cc1)Nc1ccc(F)cc1 (stereo not drawn),4%

# Bioassay records from PubChem BioAssay.
